Bioassay records as filed in PubChem BioAssay.
gsp agonist: qHTS for Agonist of gsp, the Etiologic Mutation Responsible for Fibrous Dysplasia/McCune-Albright Syndrome: qHTS; gsp mutant cells, cAMP HTRF, 30 min; control for the full effect not named in the record; Potency, µM (series often up to 76.9 µM), without a hit: at the top dose activation (cAMP increase), most hits filed as activators; actives 0.13% (n = 340,000); AID 624287, 2012; active = well fitted activation curve with a large enough effect; inconclusive = small, poorly fitted or top-dose-only effect, or another doubt; inactive = no such curve, though single readings can be large or run the other way; cell line not stated here;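 also: phosphodiesterase inhibitor Ro 20-1724 added with compounds to block cAMP breakdown; potency is read from the fitted curve at half-maximal effect; nearly all actives have a fitted effect of over 60% in size; about a fifth of the inactives were tested at one dose only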
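Cells stably selected in G418 were plated at 2000/well, grown 16-24 hr, then given compounds in DMSO with the PDE inhibitor […] (300 uM solution added) for 30 min at 37C; cAMP was read by HTRF.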
Sfp inh: qHTS Assay for Inhibitors of Bacillus subtilis Sfp phosphopantetheinyl transferase (PPTase); 4'-phosphopantetheinyl transferase ffp (Bacillus subtilis), Q9F4F7; Biochemical Sfp PPTase activity, qHTS; Potency, µM, inactives show max response, negative = inhibition, actives largely listed as inhibitors; actives 3.5% (n = 310,000); active = well fitted inhibition curve with a large enough effect; inconclusive = small, poorly fitted or top-dose-only effect, or another doubt; inactive = no such curve, though single readings can be large or run the other way;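 also: the enzyme is Sfp with the accession as filed and its product quenches rhodamine fluorescence; potency is read from the fitted curve at half-maximal effect; 0% = enzyme reaction without inhibitor and -100% = no enzyme wells; top concentration of the series not given in the record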
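Compounds were incubated with enzyme (final 15 nM) for 15 min at room temperature before substrate addition started the reaction. Fluorescence at 525 nm excitation, 598 nm emission was recorded immediately and after 30 minutes.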
Menin MLL FP FL: qHTS Assay for Inhibitors Targeting the Menin-MLL Interaction in MLL Related Leukemias: Competition With Fluorescein Labeled MLL-derived Peptide; Fluorescence polarization, fluorescein-MLL peptide displacement from menin; FP activity change, % at 61.4 µM; 290,000 tested, under 10 active; AID 1766, 2009; inconclusive = falling polarisation curve, or a change in total fluorescence; inactive = total fluorescence flat and polarisation flat or rising; no compound was filed as active; the % refers to the polarisation; negative = inhibition;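 also: % of control where 0% means no effect; inhibitors lower the polarisation; unlabelled MLL peptide was the positive control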
gsp antagonist: qHTS for Antagonists of gsp, the Etiologic Mutation Responsible for Fibrous Dysplasia/McCune-Albright Syndrome: qHTS. gsp-mutant cells, cAMP HTRF, 30 min; control for the full effect not named in the record. Potency, µM (highest dose often 76.9 µM), inactives show top-dose activity change, negative = inhibition, most hits filed as inhibitors. actives 0.4% (n = 340,000). AID 624288, 2012; active = falling curve of any shape with a large fitted effect; inconclusive = falling curve, mostly with a smaller effect; inactive = flat or rising curve; cell line not stated here;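 also: intracellular cAMP measured with PDE inhibitor Ro 20-1724 present during compound exposure; potency is read from the fitted curve at half-maximal effect; % is scaled to controls: 0 for no effect and ±100 for the full control effect; nearly all actives have a fitted effect of over 65% in size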
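HTRF cAMP read-out (cAMP-d2 plus anti-cAMP antibody-K in lysis buffer, 30 min RT). Before lysis, cells are exposed to compounds with […] for 30 min at 37C in DPBS containing Ca/Mg, BSA and Tween 20.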
ClpP mod: qHTS Assay for Activators of ClpP; actives 1.9% (n = 340,000); Potency, µM (doses to about 57.5 µM), inactives show at the top dose activity change, negative = active; purified B. subtilis ClpP, FRET peptide cleavage, 20 min; ATP-dependent Clp protease proteolytic subunit (Bacillus subtilis (strain 168)), P80244; active = well fitted falling curve with a large enough effect; inconclusive = small, poorly fitted or top-dose-only effect; inactive = no such curve, though single readings can be large or run the other way; also: potency is read from the fitted curve at half-maximal effect; the source files actives as falling curves though it sought activators and does not explain the sign; nearly all actives have a fitted effect of over 65% in size; many hits overshoot -100%
Target sequence (P80244 whole entry, looked up): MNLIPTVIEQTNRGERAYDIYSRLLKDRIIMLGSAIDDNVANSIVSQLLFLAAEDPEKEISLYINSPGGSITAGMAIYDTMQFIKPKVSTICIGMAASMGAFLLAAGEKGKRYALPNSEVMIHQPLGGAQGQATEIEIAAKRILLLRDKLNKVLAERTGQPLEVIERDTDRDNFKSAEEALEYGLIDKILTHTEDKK
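Buffer: 100 mM Tris/HCl pH8, 100 mM KCl, 0.05% low protease BSA, 2.5% glycerol, 0.01% Tween-20. ClpP 10 microg/mL final; 20 min RT; delta FRET normalized to ADEP and DMSO controls.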
CtBP-E1A blk: qHTS Assay for Inhibitors of the CtBP/E1A Interaction; CtBP / adenovirus E1A interaction (AlphaScreen); AlphaScreen GST-E1A/His-CtBP binding, 1536-well; active compounds read low; control for the full effect not named in the record; activity change, % (test concentration not listed); actives 0.49% (n = 340,000); AID 651724, 2012; in the data active means activity change below about -65%; inconclusive means about -30% to -65%; inactive means above about -30%; also: % is scaled to controls: 0 for no effect and ±100 for the full control effect
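In 5 uL wells, 23 nL compound meets equimolar GST-E1A and His-CtBP (5X stock 125 nM each) for 2 h, 37 °C. Beads (5X, 50 ug/mL) then 1 h, 37 °C, dark.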
TRPV1 potentiator: HTS Assay for Compounds that Act as Potentiators of the Vanilloid Receptor 1. actives 0.02% (n = 320,000). potentiation, % at 8.33 µM. Transient receptor potential cation channel subfamily V member 1 (Homo sapiens), Q8NER1. TRPV1-expressing cells, Fluo-8 calcium influx, capsaicin EC20 potentiation; host cell line not named in the record; control for the full effect not named in the record; active means potentiation above 80%; inconclusive means 30% to 80%; inactive means below 30%; also: 0% is about no effect
Target sequence (Q8NER1 whole entry, looked up): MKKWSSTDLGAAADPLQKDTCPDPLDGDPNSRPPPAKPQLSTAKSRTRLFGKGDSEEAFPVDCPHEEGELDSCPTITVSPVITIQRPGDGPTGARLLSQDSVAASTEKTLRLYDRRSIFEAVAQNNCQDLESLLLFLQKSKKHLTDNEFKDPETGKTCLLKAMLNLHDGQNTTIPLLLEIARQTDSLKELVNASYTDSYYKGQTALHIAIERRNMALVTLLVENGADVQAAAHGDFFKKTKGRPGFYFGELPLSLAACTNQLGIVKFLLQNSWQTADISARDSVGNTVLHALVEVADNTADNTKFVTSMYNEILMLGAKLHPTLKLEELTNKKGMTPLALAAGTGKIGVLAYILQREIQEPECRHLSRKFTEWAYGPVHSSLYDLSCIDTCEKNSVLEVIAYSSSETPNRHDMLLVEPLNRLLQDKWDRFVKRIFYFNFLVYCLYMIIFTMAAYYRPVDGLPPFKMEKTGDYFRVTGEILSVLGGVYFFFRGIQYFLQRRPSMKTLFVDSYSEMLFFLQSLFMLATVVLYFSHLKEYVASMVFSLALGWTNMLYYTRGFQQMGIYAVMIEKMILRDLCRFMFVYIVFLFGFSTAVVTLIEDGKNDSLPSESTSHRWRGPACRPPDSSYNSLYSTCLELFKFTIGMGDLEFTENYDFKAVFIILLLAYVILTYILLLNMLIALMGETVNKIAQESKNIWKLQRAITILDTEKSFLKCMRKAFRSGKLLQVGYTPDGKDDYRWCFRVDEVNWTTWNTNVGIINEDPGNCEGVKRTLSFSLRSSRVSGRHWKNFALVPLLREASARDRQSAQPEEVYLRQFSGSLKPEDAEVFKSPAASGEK
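Fluo-8 calcium influx in TRPV1-expressing cells, kinetic read (ex 480/em 520 nm). Compound added and read 3 min for agonist activity, followed by capsaicin at EC20 final and 2 min further read for enhancement.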
* hit, by the source's call; ? = inconclusive; . = no result given; & = joins results of further samples; [ ] = another dose, or the depositor's remark.

mol	gsp agonist	Sfp inh	Menin MLL FP FL	gsp antagonist	ClpP mod	CtBP-E1A blk	TRPV1 potentiator
CCc1ccc(N(CC(=O)NC(C)C)C(=O)CCC(=O)Nc2ccccn2)cc1	19%[15.4 µM]	9%	1.1	2%	-3.0%	4	2
COc1ccc(N2CCN(C(=O)CN3C(=O)c4ccccc4S3(=O)=O)CC2)cc1	4%	19%	1.3	-4%	0.9%	-4	-6
O=C(NC1CCN(Cc2ccccc2)CC1)c1ccccc1OCc1ccccc1Cl	3%	-9%	.	-17%	-0.8%	-15	-15
O=C(CSCc1ccc(Br)cc1)NCCc1ccccc1	17%	0%	-0.3	-2%	0.6%	12	-14
COc1cccc(OC)c1C(=O)Nc1ccc(C)cc1C(=O)c1ccccc1	-3%	-15%	0.8	0%	?	-6	-7
COc1ccc(CCC(=O)Nc2ccc3c(c2)OCO3)cc1OC	2%[15.4 µM]	1%	1.6	0%	.	-1	?
COc1ccccc1NC1CCCCC1NS(=O)(=O)c1ccc(C)cc1 (centres undefined)	63%	2%	2.2	-3%	-0.1%	-10	9
Cc1nc2ccccn2c1C(=O)NC1CCCCC1	-1%	5%	-1.8	7%	?	10	0
CC(C)OCCCNC(=O)c1ccc(NC(=O)C2CCCO2)cc1 (centres undefined)	-10%	16%	-2.5	3%	-2.4%	3	-9
COc1ccc(NC(=O)CSc2nnc(Cn3c(=O)sc4ccccc43)n2C)c(OC)c1	11%	8%	-4.4	-1%	-2.5%	-25	9
CCN(CC)S(=O)(=O)c1ccc(N2CCOCC2)c(NS(=O)(=O)c2ccc(C(C)C)cc2)c1	-65%[inhibitor]	5%	20	4%	0.8%	-3	-11
COc1ccc(-c2noc(COc3ccc4ccccc4c3Br)n2)cc1OC	?	-11%	?	-6%	-4.8%	10	13
CCOC(=O)c1sc(NC(=O)Nc2ccccc2F)nc1C	10%	-1%	5.3	-9%	-25%	3	-3
O=C(/C=C/c1ccco1)Oc1cccc2cccnc12	6%[15.4 µM]	-22%	-1.8	-2%	0.9%	0	3
O=C(COc1ccc(Cl)cc1Cl)Nc1ccc(CN2CCOCC2)cc1	-10%	-1%	2.6	13%	-1.6%	1	-10
Cc1cc2nc3n(c2cc1C)CC1CC(C(=O)NCCc2cccs2)N(C)C31 (centres undefined)	.	9%	1.2	-3%	-4.0%	-23	-19
COc1cc(OC)c(NC(=O)Nc2ccc(OC)c(OC)c2)cc1Cl	26%	-4%	0.8	-7%	-1.3%	6	0
COc1ccc(-c2csc3ncnc(N4CCN(S(=O)(=O)c5ccc(Cl)s5)CC4)c23)cc1	19%[15.4 µM]	.	.	-18%	.	-15	4
COc1ccc(C(C(=O)NC2CCCC2)N(C(=O)c2ccoc2C)c2cc(C)cc(C)c2)cc1 (centres undefined)	-22%	12%	0.1	-11%	1.3%	0	-26
CC(C)CNC(=O)Nc1ccc(F)c(Cl)c1	-9%[15.4 µM]	4%	1.5	-4%	.	-18	-12
COc1ccc(NC(=O)CN2C(=O)NC3(CCCc4ccccc43)C2=O)c(OC)c1 (centres undefined)	-16%	.	.	0%	16µM*	0	.
CCCCN(C(=O)CSCc1ccc(C)cc1)c1c(N)n(CCC)c(=O)[nH]c1=O	-43%[inhibitor]	8%	.	10%	-18%	6	11
Cc1ccc(-c2sc(-c3cccnc3)nc2CC(=O)O)cc1	-7%[15.4 µM]	-22%	-0.9	-8%	.	1	-4
CC(C)(C)c1ccc(/C=N/NC(=O)C(=O)NCCCN2CCOCC2)cc1	-2%[15.4 µM]	-6%	-1.8	7%	-1.4%	1	23
CCN1CCCC1CNC(=O)c1cc(S(=O)(=O)CC)c(N)cc1OC (centres undefined)	.	?	-7.8&2.0&-4.5	.	.	.	0&1
CC(NC(=S)N1CCN(c2ccccc2)CC1)c1ccccc1 (centres undefined)	5%	24%	-5.8	4%	-4.8%	-4	-21
Cc1cc(F)ccc1NCc1ccncc1	3%	2%	0.4	8%	0.9%	3	18
CC(C)C(NS(=O)(=O)c1cccc2nsnc12)C(=O)NCc1ccc2c(c1)OCO2 (centres undefined)	-32%[inhibitor]	7%	-5.3	-3%	-4.2%	3	-16
O=C(NCCCN1CCCC1)c1ccc2c(Cl)c3c(nc2c1)CCCC3	11%[15.4 µM]	79µM*	1.9	-1%	.	-12	10
COc1ccc(CNC(=O)COC(=O)c2cccc(S(=O)(=O)N3CCOCC3)c2)cc1	-30%[inhibitor]	.	.	-11%	-5.1%	7	1
CCNc1ncnc2c1cnn2C1CCCCO1 (centres undefined)	2%	.	.	-10%	2.1%	2	.
COc1ccccc1N1C(=O)[C@@H]2[C@H](C1=O)[C@H](C(=O)c1ccc(OC(C)=O)cc1)N1N=CC=C[C@@H]21	0%[15.4 µM]	-17%	1.7	-2%	1.0%	-6	15
CCCN1Cc2cccc(C(=O)N3CCN(c4ccc(F)cc4)CC3)c2C1=O	-30%	3%	1.3	-4%	-1.4%	0	7
CCC(C)(C)NC(=O)C(c1cccn1C)N(C(=O)Cn1nnc2ccccc21)c1ccc(OC)cc1 (centres undefined)	8%	7%	-2.9	-2%	0.2%	1	-15
COc1ccc(CNC(=O)c2noc(C)c2[N+](=O)[O-])cc1	?	17%	3.1	1%	0.3%	9	-1
CC1CCCC(NC(=O)COC(=O)c2ccccc2Sc2ccccc2C#N)C1C (centres undefined)	-15%	22%	3.9	-4%	-5.8%	4	-6
COc1cc(CN2CCN(S(=O)(=O)c3ccc(NC(C)=O)cc3)CC2)cc(OC)c1O	-4%	-12%	2.2	-12%	-0.1%	-2	16
CCCCNC(=O)c1ccc(NS(=O)(=O)c2ccc3[nH]c(=O)[nH]c3c2)cc1	?	-10%	.	5%	2.0%	2	-7
Cc1[nH]n2c(=O)cc(C(C)(C)C)nc2c1-c1ccccc1	15%[15.4 µM]	0%	3.8	-11%	2.8%	-4	-2
COc1ccc(-c2cccc(NS(=O)(=O)c3cc([N+](=O)[O-])ccc3C)c2)nn1	-1%[15.4 µM]	.	.	-18%	1.0%	0	-1
O=C(Cn1cnc([N+](=O)[O-])n1)N/N=C/c1cccc2ccccc12	-11%[15.4 µM]	6%	3.4	9%	.	0	-13
CC(C)NC(=O)c1ccc(NC(=O)CC2SC(N3CCCCC3)=NC2=O)cc1 (centres undefined)	-35%[inhibitor]	.	.	3%	-0.1%	-1	1
Cc1cccc2cc3c(NC(=O)C(C)C)nn(C)c3nc12	15%	-1%	-0.8	-5%	1.4%	5	16
COc1ccc(-c2ocnc2C(=O)N2CCN(C(c3ccccc3)c3ccccc3)CC2)cc1	-6%[15.4 µM]	-18%	5.3	?	.	11	-6
Cc1ccc(C(O)Cn2cc([N+](=O)[O-])nc2C)cc1 (centres undefined)	-13%	22%	2.8	9%	.	-15	4
CCN1/C(=C\c2ccc3ccccc3[n+]2CC)Sc2cc(C)ccc21	?	?	?	-16%	0.6%	.	17
O=C(c1cccc([N+](=O)[O-])c1)N(c1ccccn1)c1ccccn1	-1%[15.4 µM]	12%	-1.0	11%	0.3%	1	-3
COc1ccccc1NC(=O)C(=O)Nc1ccc2c(c1)N(C(=O)C1CC1)CCC2	-7%	.	.	-3%	-0.4%	12	-4
COC(=O)Cc1cc(=O)n2[nH]c(C)c(-c3ccccc3)c2n1	-28%	-10%	11	1%	?	1	0
CCCCNC(=O)CSc1nc2cc3c(cc2c(=O)n1CCCC(=O)NCCc1ccc(OC)c(OC)c1)OCO3	2%[15.4 µM]	13%	-0.8	-31%	-1.9%	10	13

New compounds follow.
mol	gsp agonist	Sfp inh	Menin MLL FP FL	gsp antagonist	ClpP mod	CtBP-E1A blk	TRPV1 potentiator
CCCCCCCC(=O)N/N=C/c1cccnc1	-6%	19%	-3.3	-1%	-0.7%	7	-21
COc1cccc(-n2c(SCC(=O)Nc3cc(C)on3)nc3ccccc3c2=O)c1	0%	16%	0.0	13%	-1.4%	-6	18
COc1cc(OC)c(NC(=O)CCNC(=O)Cn2ccc3ccccc3c2=O)cc1Cl	29%	8%	0.9	8%	-1.4%	4	.
CC(C)CCNC(=O)CCn1nc(-c2ccccc2)ccc1=O	7%	8%	0.7	9%	-7.8%	3	-6
CCOc1ccc(NC(=O)CN(C)C(=O)CCNC(=O)c2ccccc2Cl)cc1OCC	-21%	.	.	-16%	-1.7%	-2	9
COc1ccccc1N1CCN(Cc2nc3ccsc3c(=O)[nH]2)CC1	-11%	0%	15	-6%[15.4 µM]	1.2%	11	-2
COc1ccc(CC(=O)NCc2ccccc2F)cc1S(=O)(=O)N1CCOCC1	-1%	.	.	.	-0.5%	-5	.

Fetched by compound from above, two records:
mol	gsp agonist	Sfp inh	Menin MLL FP FL	gsp antagonist	ClpP mod	CtBP-E1A blk	TRPV1 potentiator
COc1ccc(-c2cccc(NS(=O)(=O)c3cc([N+](=O)[O-])ccc3C)c2)nn1	-1%[15.4 µM]	.	.	-18%	1.0%	0	-1
Cc1ccc(C(O)Cn2cc([N+](=O)[O-])nc2C)cc1 (centres undefined)	-13%	22%	2.8	9%	.	-15	4

3 entries already listed, ordered by their value in Sfp inh, lowest first.
structure | Sfp inh
COc1ccccc1N1CCN(Cc2nc3ccsc3c(=O)[nH]2)CC1 | 0%
CC(C)CCNC(=O)CCn1nc(-c2ccccc2)ccc1=O | 8%
COc1cccc(-n2c(SCC(=O)Nc3cc(C)on3)nc3ccccc3c2=O)c1 | 16%
